# Sa growth 42C = blocks Staphylococcus aureus growth; S. aureus RN4220 growth, OD600, 20 h, 42 °C; hits give low values; 170,000 compounds, 0.53% hits; relative growth, % (no concentration beside the values);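 active means growth at 42 °C up to 50% and 20 or more points under that at 30 °C, or under 10% at both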;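 further: 300 nL library stock went into each well; scaled to the means of positive and negative controls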
# GIV-Gai inh = blocks GIV peptide binding to rat Galpha-i3. percent of control (FP), % (concentration not given with the values). Galpha-i3/FITC-GIV peptide fluorescence polarization, 90 min; hits give low values; scaled: aluminum fluoride 0%, vehicle 100%. P08753. 210,000 compounds, 0.42% hits;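 active means replicate mean at 85% of control or lower, very high polarization wells dropped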;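 further: wells of about 15 µL received 100 nL stock; the first replicate is given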
# Target sequence (P08753 whole entry, looked up): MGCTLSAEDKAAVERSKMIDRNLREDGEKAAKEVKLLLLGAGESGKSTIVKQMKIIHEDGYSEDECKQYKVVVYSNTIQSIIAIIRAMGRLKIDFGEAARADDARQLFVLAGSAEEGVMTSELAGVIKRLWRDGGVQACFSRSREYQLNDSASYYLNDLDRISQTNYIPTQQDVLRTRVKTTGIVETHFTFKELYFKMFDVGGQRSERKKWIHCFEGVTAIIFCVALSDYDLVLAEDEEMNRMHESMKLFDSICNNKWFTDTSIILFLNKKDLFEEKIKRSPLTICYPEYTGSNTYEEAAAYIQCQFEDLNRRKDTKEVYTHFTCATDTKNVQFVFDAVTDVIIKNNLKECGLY
# HCMV UL50-53 inh = disrupts HCMV UL50-UL53 complex binding | 190,000 compounds, 0.15% hits | inhibition, % (concentration not given with the values) | HTRF UL50-UL53 interaction, normalized percent inhibition | AID 1918969;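 active means both replicates at 50% or more, plus weaker picks with an unusually low signal ratio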;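 further: stock transfer was 100 nL into about 20 µL; 0% = negative control wells and 100% = wells with untagged competitor protein; inactives centre near -12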
# Sa growth 42C second temp = also measured in Sa growth 42C; calls as there; relative growth, %; measured here: growth at 30 °C;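 optical density after 20 h as mean of two plates; 100% = untreated growth and lower means inhibition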
# An asterisk follows results filed as active; x = no result given; & = joins results of further samples. Some of the compounds tested, so the mix of outcomes need not match the whole.
no.	SMILES	Sa growth 42C	Sa growth 42C second temp
1	O=C1c2ccccc2C(=O)N1Cc1nc2ccccc2c(=O)n1-c1ccncc1	81	90
2	NC(=NCc1ccc(Cl)cc1)SCCCc1cnc[nH]1	90	84
3	COC(=O)c1ccc(OP2(=O)COc3ccccc3OC2)cc1	111	81
4	N#CC(C#N)=Cc1c(Cl)nc2sccn12	58	14
5	Cc1c(Cl)c([N+](=O)[O-])nn1CC(=O)Nc1ccc(Cl)cc1C(=O)c1ccccc1	x	x
6	O=C1[C@@H]2CCCN2[C@@H](c2cccnc2)N1c1nccs1	x	x
7	CC(C)(N)Cc1ccccc1	94	88
8	NC1=C(C(=O)OCc2ccccc2)C2(C(=O)Nc3ccc(Br)cc32)c2c(c3ccccc3oc2=O)O1 (centres undefined)	x	x
9	Cc1cc(C(=O)O)c(C)n1C(C)C	79	75
10	COc1ccc2c(C)cc(N(C)C3CCN(C)CC3)nc2c1	98	96

no.	GIV-Gai inh	HCMV UL50-53 inh
1	101	3
2	x	-9&-47
3	101	x
4	x	-34
5	90	-27
6	99	-27
7	x	-46
8	100	-11
9	99	-5
10	x	-16

# The listing continues:
no.	SMILES	Sa growth 42C	Sa growth 42C second temp
11	NC(=O)CS(=O)(=O)C(c1ccccc1)c1ccccc1	80	96
12	COc1ccc2[nH]cc(CCN)c2c1	77&84	90&84
13	Cc1ccc(C(=O)CBr)cc1C	94	72
14	O=C(Cc1ccccc1)N1CCN(c2cccc(C(F)(F)F)c2)CC1	81	90
15	CCCCn1nc(C)c(C(=O)Nc2nc3ccccc3[nH]2)c1Cl	101	83
16	CC(C)(C)c1nc2ccccc2c(=O)n1-c1ccc(F)cc1F	100	111
17	CCN(CC)P1(=S)N(C)P(=S)(N(CC)CC)N1C (centres undefined)	95	93
18	COC(=O)c1sc2c(C)cc(Cl)c(C)c2c1C(=O)O	113	90
19	CN1CCN(C(=O)COc2cc(-c3ccccc3)nc3ccccc23)CC1	119	101
20	c1ccc2c(c1)sc1ccccc12	97	96

no.	GIV-Gai inh	HCMV UL50-53 inh
11	102	-3
12	105&101	-15&-96&-20
13	x	-24
14	x	-19
15	x	-21
16	x	-5
17	x	-39
18	110	9
19	102	-3
20	x	-4&-11

# New compounds follow
no.	SMILES	Sa growth 42C	Sa growth 42C second temp
21	CCn1c(O)c(C=NCCc2c[nH]c3ccccc23)c(=O)[nH]c1=O	108	96
22	C=CC1CN2CCC1CC2[C@@H](OC(=O)c1ccc(OC)cc1)c1ccnc2ccccc12 (some centres undefined)	46	49
23	C=CCOc1ccc(C=C(C#N)C#N)cc1	86	72
24	NCCN1CCN(Cc2ccccc2)CC1	98	94
25	COc1ccc(-n2c(O)c(C=NC3CN4CCC3CC4)c3ccccc3c2=O)cc1OC (centres undefined)	96	89
26	CN1CCc2nc3sc(C(=O)NC(C)(C)C)c(N)c3cc2C1	110	89
27	O=C1NC(=O)C2(OC(=O)C(=O)/C2=C(/O)c2ccccc2)C(=O)N1	82	91
28	Cc1cc(C)[n+]2c(-c3ccccc3)csc2n1	88	88
29	CCn1nc(-c2cccnc2)nc2c(=O)n(C)c(=O)nc1-2	-0.2*	-0.4*
30	Cc1cc(/C=C2\C(=O)NC(=O)N(c3ccc(F)cc3)C2=O)c(C)n1-c1ccc(C(=O)O)cc1	x	x

no.	GIV-Gai inh	HCMV UL50-53 inh
21	106	-14
22	98	x
23	104	-30
24	x	-7
25	x	-99
26	x	-37
27	x	12
28	x	-18
29	46*	71
30	102	-18

# Remaining list, next part:
no.	SMILES	Sa growth 42C	Sa growth 42C second temp
31	OC(c1cccs1)(c1cccs1)C1CN2CCC1CC2 (centres undefined)	103	106
32	NC(=O)CN1CCCC1=O	91	85
33	Cc1ccc(C(=O)Oc2cccc3cccnc23)cc1S(=O)(=O)N1CCCCC1	x	x
34	Nc1c(C(=O)Nc2ccc(Br)cc2F)sc2nc3c(cc12)N1CCC3CC1	89	104
35	NC(=O)c1cc([N+](=O)[O-])cc([N+](=O)[O-])c1	63	46
36	Cc1nccc2c1[nH]c1ccccc12	x	x
37	CN1C(=O)CC(c2ccccc2)Nc2ccccc21 (centres undefined)	95	82
38	C=C[C@H]1CN2CC[C@H]1C[C@H]2[C@H](O)c1ccnc2ccccc12	91	89
39	C/C=C(/C)C(=O)O[C@H]1C(C)=C2[C@H]([C@@H]1OC(=O)CCCCCCC)[C@@](C)(OC(C)=O)C[C@H](OC(=O)CCC)[C@@]1(O)[C@H]2OC(=O)[C@@]1(C)O	x	x
40	Cc1[nH]nc2c1C(c1cc(F)ccc1F)SCC(=O)N2 (centres undefined)	x	x

no.	GIV-Gai inh	HCMV UL50-53 inh
31	x	15
32	99	-36&-11&-21
33	106	0
34	113	-26
35	x	-136
36	102	-12&-24&-38
37	97&103	-10
38	x	-34&-26
39	98	6&-22
40	97	-24

# (more compounds)
no.	SMILES	Sa growth 42C	Sa growth 42C second temp
41	COc1cc(C=C2C(=O)N(C)C(=O)N(C)C2=O)ccc1OCCOc1ccccc1	x	x
42	O=C(NC1CCCC1)c1cc2cccnc2n(Cc2ccccc2)c1=O	x	x
43	OC1CCCCC1N1CCC(c2ccccc2)CC1 (centres undefined)	99	104
44	C/C=C(\C)CN(C)CCc1ccccn1	98	103
45	OCCCCNC1CCCCC1	101	87
46	COc1cc(C=C(C#N)C#N)ccc1O	71	71
47	CCOC(=O)c1[nH]c2ccc(OC)cc2c1C(SCC(=O)O)c1ccc(C(F)(F)F)cc1 (centres undefined)	51	38
48	NC(Cc1ccccc1)c1ccc2c(c1)OCCO2 (centres undefined)	92	57
49	Cn1cnc(-n2oo2)c1C#N	78	2
50	Nc1nnc(CCN2CCCC2)s1	77	88

no.	GIV-Gai inh	HCMV UL50-53 inh
41	107	-19
42	109	-1
43	103	-4&-26&-20
44	104	-13
45	103	-42
46	133	-7
47	102	x
48	x	-7
49	102	-73
50	99	-1

# Later entries:
no.	SMILES	Sa growth 42C	Sa growth 42C second temp
51	CCOc1ccc(-n2c(CN(CC)CC)nc3ccccc3c2=O)cc1	110	101
52	COc1ccc(NC(=O)CN2C(=O)C(C)N=C(c3ccccc3)c3ccccc32)cc1OC (centres undefined)	97	91
53	COc1ccc(-n2c(=O)[nH]c3ccccc3c2=O)cc1OC	84	86
54	CN1CCCN(C(=O)c2cccnc2Cl)CC1	84	95
55	O=C(O)C(Cl)Cl	107	107
56	COC(=O)C(O)(c1c[nH]c2ccccc12)C(F)(F)F (centres undefined)	108	95
57	COCc1cc(OC(=O)N(C)C)nc(SC)n1	110	93
58	NP(N)(=O)C12CC3CC(CC(C3)C1)C2	105	91
59	CCC(=O)N1N=C2C3CCN(CC3)[C@@H]2[C@@H]1c1ccccc1C	x	x
60	N#CC(C#N)=Cc1ccc(Cl)s1	93	76

no.	GIV-Gai inh	HCMV UL50-53 inh
51	100	1
52	108	8
53	104	-6
54	x	-17
55	x	2&10
56	105	-3
57	103	-1
58	x	-7
59	99	-15
60	99	-24

# The listing continues.
no.	SMILES	Sa growth 42C	Sa growth 42C second temp
61	CC(=O)N(C1=NCCCS1)c1ccccc1F	109	107
62	CCOc1ccc(C2SCC(=O)Nc3c2c(=O)[nH]n3C2CCCC2)cc1 (centres undefined)	104	89
63	COc1ccccc1Cn1c(N)c(C(N)=O)c2nc3ccccc3nc21	114	89
64	COc1ccc(-n2c(/C=C/c3cccc(F)c3)nc3ccccc3c2=O)cc1Cl	101	88
65	COc1cc(CN2CC3CC(C2)c2cccc(=O)n2C3)cc(Br)c1O (centres undefined)	90	74
66	Clc1ccc(C2NCCc3[nH]cnc32)cc1 (centres undefined)	x	x
67	CC(C)Oc1ccc(C2N3CCCN23)cc1 (centres undefined)	x	x
68	O=C(CSC(c1ccccc1)c1ccccc1)Nc1ccccc1	128	87
69	N#CC(C#N)=Cc1ccc(O)c(Cl)c1	80	65
70	CCSc1nc2ccccc2c(=O)n1-c1cccc(OC)c1	102	90

no.	GIV-Gai inh	HCMV UL50-53 inh
61	100	20
62	101	x
63	106	-21
64	104	x
65	108	-30
66	108	-18
67	100	-10
68	x	-6
69	99	-26
70	102	x

# Further structures follow:
no.	SMILES	Sa growth 42C	Sa growth 42C second temp
71	O=c1c2ccccc2nc(/C=C/c2ccc([N+](=O)[O-])o2)n1-c1ccc(Br)cc1	x	x
72	Fc1cccc(C2NCCc3[nH]cnc32)c1F (centres undefined)	x	x
73	CC(C)(C)c1ccc(OCCOc2cccc(C=C3C(=O)NC(=S)NC3=O)c2)cc1	x	x
74	Cc1ccccc1-n1c(/C=C/c2ccc(O)cc2)nc2ccccc2c1=O	107	90
75	Cc1nc2ccccc2c(=O)n1-c1ccccc1	96	84
76	CCOC(=O)Cc1ccc(NC(=O)N2Cc3ccccc3-n3cccc3C2C(C)C)cc1 (centres undefined)	x	x
77	COc1ccc(CCNC2CCCCC2C)cc1OC (centres undefined)	94	100
78	N#CCSc1ccccc1NC(=O)CN1CC=C(c2ccccc2)CC1	90	83
79	Cc1cccc(CN2CCN(Cc3cccc(C)c3O)CC2)c1O	81	103
80	C#CCN=Cc1c(O)[nH]c(=O)[nH]c1=O	83	91

no.	GIV-Gai inh	HCMV UL50-53 inh
71	106	-9
72	103	-18
73	95	-4
74	131	-18
75	101	-15
76	106	-24
77	x	14
78	x	0
79	x	-2
80	x	-33

# Following part:
no.	SMILES	Sa growth 42C	Sa growth 42C second temp
81	c1ccc2c(CN3CCNCC3)cccc2c1	98	97
82	CN1CCC(NCCO)CC1	111	84
83	O=C(O)CC[N+](=O)[O-]	x	x
84	O=C(COc1ccc(S(=O)(=O)N2CCOCC2)cc1)N1CCN(Cc2ccc3c(c2)OCO3)CC1	101	106
85	COc1cccc2c(CCN)c[nH]c12	107	103
86	Cc1ccc(N2C(=O)NC(=O)/C(=C/c3ccc(-c4cccc(C(=O)O)c4)o3)C2=O)cc1	x	x
87	C=CCC1CCCCC1NC1CCCCC1 (centres undefined)	82	91
88	CCc1ccc(N2Cc3ccccc3C2=N)cc1	112	89
89	Cc1cc(C)cc(-n2c(=O)[nH]c3ccccc3c2=O)c1	106	93
90	CCC1=NP(N2CCN(C)CC2)(N2CCN(C)CC2)=NC(N2CCN(C)CC2)=C1C	106	101

no.	GIV-Gai inh	HCMV UL50-53 inh
81	x	-14
82	99	-3
83	95	-25
84	106	3
85	x	-5
86	114	-4
87	x	-1
88	x	-27
89	101&103	0&-21
90	x	-34

# 3 of the compounds above, tab-delimited:
no.	Compound	Sa growth 42C	Sa growth 42C second temp	GIV-Gai inh	HCMV UL50-53 inh
23	C=CCOc1ccc(C=C(C#N)C#N)cc1	86	72	104	-30
24	NCCN1CCN(Cc2ccccc2)CC1	98	94	x	-7
25	COc1ccc(-n2c(O)c(C=NC3CN4CCC3CC4)c3ccccc3c2=O)cc1OC (centres undefined)	96	89	x	-99

# Next compounds.
no.	SMILES	Sa growth 42C	Sa growth 42C second temp
91	CC(C)NS(=O)(=O)c1ccc(OCC(=O)N2CCN(Cc3ccccc3)CC2)cc1	107	101
92	CN1C2CCC1CC(NCCc1ccccc1)C2 (centres undefined)	102	89
93	C[N+]1(C)C2CCC1CC(OC(=O)c1c[nH]c3ccccc13)C2 (centres undefined)	x	x
94	Cc1ccc(C2N3CCCN23)cc1 (centres undefined)	111	99
95	COP(=S)(OC)Oc1ccc(Sc2ccc(OP(=S)(OC)OC)cc2)cc1	88	91
96	Cc1nc2ccccc2c(=O)n1-c1cccc(O)c1	113	70
97	CCCCn1c(C)c(C(=O)OCC)c2cc(OC(=O)c3cccc4ccccc34)c3ccccc3c21	x	x
98	Cn1c(O)c(C=NC2CCCCCC2)c(=O)[nH]c1=S	109	106
99	CCc1ccc(NC2=NCCCS2)cc1	94	89
100	NCCc1ccc2c(c1)OCCO2	87	96

no.	GIV-Gai inh	HCMV UL50-53 inh
91	107	1
92	106	-4
93	104	-5
94	107	5
95	x	-10
96	107	6
97	100	2
98	103	-8
99	x	-27
100	x	-6

# Shown with two lines to a compound: part of the list above
# The line under a structure holds: Sa growth 42C, Sa growth 42C second temp, GIV-Gai inh, HCMV UL50-53 inh
98	Cn1c(O)c(C=NC2CCCCCC2)c(=O)[nH]c1=S
 : 109, 106, 103, -8
99	CCc1ccc(NC2=NCCCS2)cc1
 : 94, 89, x, -27
100	NCCc1ccc2c(c1)OCCO2
 : 87, 96, x, -6

# Additional results follow.
no.	SMILES	Sa growth 42C	Sa growth 42C second temp
101	CC1=C(C(=O)Nc2ccccc2)SCCO1	90	85
102	NC(CP(=O)(O)O)C(=O)O (centres undefined)	x	x
103	CCN1CCN(CC2=CCC3CC2C3(C)C)CC1 (centres undefined)	99	82
104	COC(=O)C1=C(C)OC(N)=C(C#N)C12C(=O)N(C)c1ccccc12 (centres undefined)	88	32
105	CCc1ccc(C=C2C(=O)N(C)C(=S)N(C)C2=O)cc1	77	66
106	COc1ccccc1CNc1cnn(C23CC4CC(CC(C4)C2C(=O)O)C3)c(=O)c1Cl (centres undefined)	103	99
107	CC(C)(N)Cc1ccc(Cl)cc1	104	86
108	CCOC(=O)c1c(C)n(C2CC2)c2ccc(O)cc12	120	69
109	Cc1ccc(C2C(C#N)=C(N)Oc3c2c(=O)oc2ccccc32)o1 (centres undefined)	86	46

no.	GIV-Gai inh	HCMV UL50-53 inh
101	x	-7&-23
102	114	-13
103	103	-14
104	x	8
105	106	0
106	102	-6
107	100	-11
108	105	-5
109	x	5

# Screening data: PubChem BioAssay, ICCB-Longwood Screening Facility, Harvard Medical School
